# Sfp inh: qHTS Assay for Inhibitors of Bacillus subtilis Sfp phosphopantetheinyl transferase (PPTase) | 4'-phosphopantetheinyl transferase ffp (Bacillus subtilis), Q9F4F7 | Biochemical Sfp PPTase activity, qHTS | Potency, µM, without a hit: max response, negative = inhibition, usual class: inhibitors | 3.5% of 310,000 active | AID 1490, 2009; active = well fitted inhibition curve with a large enough effect; inconclusive = small, poorly fitted or top-dose-only effect, or another doubt; inactive = no such curve, though single readings can be large or run the other way;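 note: the enzyme is Sfp with the accession as filed and its product quenches rhodamine fluorescence; potency is the fitted concentration of half-maximal effect; 0% = enzyme reaction without inhibitor and -100% = no enzyme wells; top concentration of the series not given in the record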
#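 Fluorescence-quenching assay with 15 nM Sfp, 5 uM rhodamine-CoA and 12.5 uM BHQ-2-labelled ybbR peptide in pH 7.6 Hepes/MgCl2 buffer. Enzyme was pre-incubated with compound for 15 min at room temperature. Rate was taken from the 30-min fluorescence change (525/598 nm).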
# gsp agonist: qHTS for Agonist of gsp, the Etiologic Mutation Responsible for Fibrous Dysplasia/McCune-Albright Syndrome: qHTS. gsp mutant cells, cAMP HTRF, 30 min; control for the full effect not named in the record. Potency, µM (doses to about 76.9 µM), inactives show at the highest dose activation (cAMP increase), most hits filed as activators. 0.13% of 340,000 active. AID 624287, 2012; active = well fitted activation curve with a large enough effect; inconclusive = small, poorly fitted or top-dose-only effect, or another doubt; inactive = no such curve, though single readings can be large or run the other way; cell line not stated here;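 note: phosphodiesterase inhibitor Ro 20-1724 added with compounds to block cAMP breakdown; potency is the fitted concentration of half-maximal effect; nearly all actives have a fitted effect of over 60% in size; about a fifth of the inactives were tested at one dose only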
#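 Cells in DMEM/10% FBS with G418 were pretreated with compounds in DMSO plus […] (300 uM stock) for 30 min at 37C. cAMP was measured by HTRF (cAMP-d2 plus anti-cAMP antibody-K) after 30 min at room temperature.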
# Menin-MLL FL inh: qHTS Assay for Inhibitors Targeting the Menin-MLL Interaction in MLL Related Leukemias: Competition With Fluorescein Labeled MLL-derived Peptide. Fluorescence polarization, fluorescein-MLL peptide displacement from menin. FP activity change, % at 61.4 µM. 290,000 tested, under 10 active; inconclusive = falling polarisation curve, or a change in total fluorescence; inactive = total fluorescence flat and polarisation flat or rising; no compound was filed as active; the % refers to the polarisation; negative = inhibition;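 note: % of control where 0% means no effect; inhibitors lower the polarisation; unlabelled MLL peptide was the positive control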
# gsp antagonist: qHTS for Antagonists of gsp, the Etiologic Mutation Responsible for Fibrous Dysplasia/McCune-Albright Syndrome: qHTS; gsp-mutant cells, cAMP HTRF, 30 min; control for the full effect not named in the record; Potency, µM (highest dose often 76.9 µM), inactives show at the top dose activity change, negative = inhibition, most hits filed as inhibitors; 0.4% of 340,000 active; AID 624288, 2012; active = falling curve of any shape with a large fitted effect; inconclusive = falling curve, mostly with a smaller effect; inactive = flat or rising curve; cell line not stated here;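 note: intracellular cAMP measured with PDE inhibitor Ro 20-1724 present during compound exposure; potency is the fitted concentration of half-maximal effect; % is set by controls: 0 for no effect and ±100 for the full control effect; nearly all actives have a fitted effect of over 65% in size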
#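 Cells in G418 medium, seeded 16-24 h, 37C; buffer exchange to DPBS + 1 mM CaCl2, 0.5 mM MgCl2, 0.05% BSA; cpds in DMSO + […] (300 uM stock), 30 min 37C; HTRF cAMP detection.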
# D2 ag: Beta-Arrestin HTS for Positive Allosteric Modulators of the Human D2 Dopamine Receptor: Agonists | D(2) dopamine receptor (Homo sapiens), P14416 | DiscoveRx PathHunter D2 beta-arrestin, luminescence, 90 min; 100% = 57 uM dopamine signal | activation, % (concentration not given with the values) | 0.084% of 360,000 active | AID 624465, 2012; in the data active = activation above about 40%; inconclusive = about 15% to 40%; inactive = below about 15%; note: compound concentration not given in the record; the text of the record calls up to 30% inactive
# Target sequence (P14416 whole entry, looked up): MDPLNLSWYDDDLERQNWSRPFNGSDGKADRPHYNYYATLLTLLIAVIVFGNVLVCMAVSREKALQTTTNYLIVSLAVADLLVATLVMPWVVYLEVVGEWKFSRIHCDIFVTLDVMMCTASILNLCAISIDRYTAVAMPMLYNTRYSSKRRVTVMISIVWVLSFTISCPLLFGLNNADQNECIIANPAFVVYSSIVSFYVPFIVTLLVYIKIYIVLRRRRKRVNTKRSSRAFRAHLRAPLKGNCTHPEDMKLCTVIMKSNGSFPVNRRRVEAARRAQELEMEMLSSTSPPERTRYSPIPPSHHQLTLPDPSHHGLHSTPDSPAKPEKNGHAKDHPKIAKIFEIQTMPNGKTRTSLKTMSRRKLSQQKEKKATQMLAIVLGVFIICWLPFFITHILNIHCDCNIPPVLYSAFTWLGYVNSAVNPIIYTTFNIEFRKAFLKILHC
#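 Agonist mode: compounds alone added to overnight-plated D2 PathHunter cells for 90 min at 37 C, with 57 uM final dopamine (EC100) defining full response. Beta-arrestin recruitment detected by chemiluminescent reagent, read after 1 h at ambient temperature.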
# PINK1 modulator: A Quantitative High throughput Screen to Identify Chemical Modulators of PINK1 Expression; Potency, µM (highest dose often 76.6 µM), for inactives: at the highest dose activation (PINK1 increase), actives largely listed as activators; 0.2% of 410,000 active; PINK1 immunofluorescence, high-content cytometry, 24 h; active = well fitted activation curve with a large enough effect; inconclusive = small, poorly fitted or top-dose-only effect; inactive = flat fitted curve, though single readings scatter; cell line not stated here;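 note: potency is the fitted concentration of half-maximal effect; % of control where 0% means no effect; nearly all actives have a fitted effect of over 65% in size; a mitochondrial uncoupler was the plate control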
#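 PINK1 protein, normally rapidly degraded, was detected by immunofluorescence after 24 hour compound treatment of a stable cell line. Titration data (5 concentrations) came from laser-scanning cytometry, with CCCP-treated wells as controls.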
# ClpP mod: qHTS Assay for Activators of ClpP | ATP-dependent Clp protease proteolytic subunit (Bacillus subtilis (strain 168)), P80244 | purified B. subtilis ClpP, FRET peptide cleavage, 20 min | Potency, µM (doses to about 57.5 µM), for the others: at the highest dose activity change, negative = active | 1.9% of 340,000 active; active = well fitted falling curve with a large enough effect; inconclusive = small, poorly fitted or top-dose-only effect; inactive = no such curve, though single readings can be large or run the other way; note: potency is the fitted concentration of half-maximal effect; the source files actives as falling curves though it sought activators and does not explain the sign; nearly all actives have a fitted effect of over 65% in size; many hits overshoot -100%
# Target sequence (P80244 whole entry, looked up): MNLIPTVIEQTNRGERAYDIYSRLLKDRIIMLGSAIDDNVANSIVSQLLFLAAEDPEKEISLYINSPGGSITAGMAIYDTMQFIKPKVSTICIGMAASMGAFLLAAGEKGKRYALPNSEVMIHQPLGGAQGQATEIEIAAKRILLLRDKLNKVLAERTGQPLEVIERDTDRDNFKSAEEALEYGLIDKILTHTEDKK
#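 Purified B. subtilis ClpP, 10 microg/mL final in Tris/HCl pH8 with KCl, BSA, glycerol and Tween-20, cleaved an Abz/nitrotyrosine-quenched decapeptide. Fluorescence (ex 320, em 430) was read at 0 and 20 min at room temperature. Delta was normalized to 5.8 microM ADEP and DMSO/no-enzyme controls.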
# Numbers without * were called inactive; ? = inconclusive; / = not tested or not shown; [ ] = another dose, or the depositor's remark.
SMILES,Sfp inh,gsp agonist,Menin-MLL FL inh,gsp antagonist,D2 ag,PINK1 modulator,ClpP mod
CCOc1cccc2c1OC(c1cc(OC)c(OC)c(OC)c1)N1N=C(c3ccc(C)o3)CC21 (stereo not drawn),?,-11%,15,-13%,-3.1,1.7%,/
CC1CN(c2ccccc2)c2nc3c(c(=O)[nH]c(=O)n3C)n2C1 (stereo not drawn),15%,-20%[15.4 µM],3.6,-15%,-5.6,2.5%,/
O=C(NC(=S)NCc1ccco1)c1ccc([N+](=O)[O-])cc1,/,23%[15.4 µM],/,-10%,1.5,1.9%,-1.0%
CCCN1CCN(CC(O)COC(c2ccc(OC)cc2)c2ccc(OC)cc2)CC1 (stereo not drawn),45µM*,7%[15.4 µM],/,-1%,-4.6,-1.8%,3.5%
COc1ccccc1CN(Cc1cc2cc3c(cc2[nH]c1=O)OCCO3)Cc1nnnn1Cc1ccco1,13µM*,-1%,?,9%,1.7,1.4%[38.3 µM],28µM*
O[C@H]1CN(Cc2cccs2)[C@@H](c2ccccc2)C[C@@H]1n1cc(-c2ccc(F)cc2)nn1,/,?,/,/,-8.1,29%,-1.6%
CCOC(=O)c1cc(=O)n2[nH]c(-c3ccc(C)cc3)cc2n1,14%,29%,5.5,0%,-2.3,2.1%,?
O=C(CN1C(=O)C2C3c4ccccc4C(c4ccccc43)C2C1=O)Nc1ccccc1C(=O)O (stereo not drawn),-17%,-34%[inhibitor],0.6,-18%,0.9,1.9%,-14%
Cc1ccc(NC(=O)CCn2nc(C)cc2C)c(C)c1,8%,-18%,-0.5,8%,-4.2,4.3%,1.0%
CCOC(=O)N(C)c1c(CC)nc2c(OCc3ccc(F)c(F)c3)cccn12,/,/,/,/,4.1,1.7%,-4.7%
CSc1nc(N)nc(SCC(=O)c2ccccc2)c1C#N,-7%,18%,1.1,-13%,-3.7,11%,0.5%
CC(C)(C)c1ccc(C(=O)CCC(=O)NCc2ccccc2)cc1,/,?,/,7%,-1.9,3.0%,-1.2%
Cc1cccc(C(=O)OCC(=O)NC(C)C2CC3CCC2C3)c1O (stereo not drawn),/,6%,/,4%,4.3,5.8%,-5.4%
CC(=O)Nc1ccc(C(=O)NC(CC(=O)O)c2ccc(Cl)cc2)cc1 (stereo not drawn),-4%,-6%,0.7,9%,-2.5,7.4%[38.3 µM],-1.6%
Cn1c(=O)c2[nH]c(COc3ccc(C(C)(C)C)cc3)nc2n(C)c1=O,8%,4%,-0.5,?,4.5,2.4%,3.0%
[2H]c1c([2H])c([2H])c(-c2nc(N3CCCCCC3)sc2C(=O)c2ccccc2)c([2H])c1[2H],-10%,-8%,3.9,-28%,-1.8,2.0%,-2.4%
COc1cc(OC)cc(/C(N)=N/O)c1,4%,9%[15.4 µM],0.0,7%,-4.9,-1.3%,-1.5%
Cc1ncc(CO)c(/C=N/NC(=S)Nc2ccc(Cl)c(Cl)c2)c1O,50µM*,-162%[inhibitor],?,-5%,10,6.5%,-22%
COc1ccc(OC)c(NC(=O)COC(=O)c2n[nH]c3ccccc23)c1,/,-33%[inhibitor],/,45µM*,4.3,2.1%,2.2%
COc1ccc(N(CC(=O)Nc2ccc(OC)c(Cl)c2)S(=O)(=O)c2c(C)noc2C)cc1,32%[activator],11%,3.5,-18%,-4.6,2.9%,3.3%
Cc1cccc(CCNC(=O)C2CCN(S(=O)(=O)c3ccccc3)CC2)c1,12%,8%[15.4 µM],-3.1,-22%,-2.4,-2.6%,2.3%
Cc1ccc2nc(SCC(=O)N(CC(C)C)c3c(N)n(CC(C)C)c(=O)[nH]c3=O)[nH]c2c1,-2%,-16%,1.7,-2%[15.4 µM],-0.6,2.9%,21%
S=c1nc(NCc2cccc(Cl)c2)c2ccccc2[nH]1,9%,-26%,3.5,-6%,-3.2,8.7%,-0.6%
CC(NCC(=O)Nc1ccccc1C(=O)NC1CC1)c1cccc(Cl)c1 (stereo not drawn),/,-4%[15.4 µM],/,-3%,-5.6,-0.8%,-1.9%
CN(C)CC1CCC/C(=C/c2ccc(Cl)cc2)C1=O (stereo not drawn),/,-12%,/,21%,2.4,-5.6%,1.6%
CSCC[C@H](NC(=O)N1CCn2c1nc1ccccc12)C(=O)NCc1ccc(C)cc1,-7%,-7%,/,0%,-0.3,1.2%,-0.9%
O=C(NC1CCCCC1)C(c1ccco1)N(C(=O)C(F)(F)F)C1CC1 (stereo not drawn),8%,22%,4.7,9%,-1.0,3.7%,1.4%
COc1ccc(S(=O)(=O)N2CCCCC2)cc1NC(=O)CNc1ccccc1N1CCCC1=O,/,-47%[inhibitor],/,-14%,6.2,0.2%,-0.7%
CCOc1ccc(NC(=O)CSc2nnc(CNC(=O)c3cccs3)o2)cc1,3%,6%,/,2%,-3.4,0.7%,1.4%
CCCCN(C1CCS(=O)(=O)C1)S(=O)(=O)c1ccc(C(C)C)cc1 (stereo not drawn),/,-27%,/,-1%,-1.7,3.8%,2.5%
Cc1ccc(CNC(=O)C(Cc2ccccc2)NS(=O)(=O)c2cccs2)cc1 (stereo not drawn),8%,-50%[inhibitor],-1.2,-19%,1.4,/,-11%
CCOC(=O)c1nc(-c2ccc3c(c2)OCO3)[nH]c1C,23%,-11%,2.1,4%,-4.3,6.6%,-1.6%
Cc1c(C(=O)N2CCNCC2)oc2ccccc12,10%,-30%,5.6,3%,0.8,1.6%,/
O=C1CCCc2nc(N3CCc4ccccc43)ncc21,20%,-27%,5.4,10%,-0.9,-4.8%[38.3 µM],?
COc1ccccc1CN(C)C(=O)COC(=O)c1c(C)noc1C,/,8%,/,-6%,-1.9,-1.5%,/
CCOc1cc(N2CCOCC2)c(OCC)cc1NC(=O)COC(=O)c1ccc(Cl)nc1,/,-24%,/,3%,0.1,-3.0%,/
CC(C)c1ccc(NC(=O)CCCN2C(=O)NC(C)(C)C2=O)cc1,/,-49%[inhibitor],/,-7%,0.4,-0.5%,0.3%
CCCC(=O)N1CCN(Cc2ccc3c(c2)OCO3)CC1,12%,-2%,6.9,9%,4.8,3.5%,-3.9%
C=CCn1c(SCC(=O)Nc2ccc(O)cc2)nc2sc(C)c(C)c2c1=O,/,24%[15.4 µM],/,-6%,-2.9,1.3%,/
O=S(=O)(Nc1nc2ccccc2nc1Cl)c1ccc(Cl)cc1,10%,13%[15.4 µM],3.8,-7%,-2.3,3.3%,2.2%
O=C(COC(=O)C12CC3CC(CC(O)(C3)C1)C2)Nc1ccccc1OC(F)F,6%,-21%,-1.6,-9%,-3.6,-0.1%,1.3%
Cc1ccc(OCCSc2nc(NC(C)C)nc(NC(C)C)n2)cc1,-1%,14%[15.4 µM],2.8,-19%,1.8,29%,-1.3%
COc1ccccc1C1/C(=C(/O)c2ccc(OC(C)C)cc2)C(=O)C(=O)N1c1cc(C)on1 (stereo not drawn),6%,19%,0.2,28µM*,0.7,-1.6%,-2.6%
N#Cc1ccccc1OCC(=O)NC(=O)NC1CCS(=O)(=O)C1 (stereo not drawn),/,-13%,/,9%,-3.7,6.0%,-7.9%
CCCn1nc2cc(C(=O)NCc3ccc(C)cc3)ccc2c1OC,7%,?,1.1,4%,-8.2,-0.1%,3.9%
Cc1nc2c(C)cccn2c1/C(O)=C1\C(=O)C(=O)N(CCN(C)C)C1c1ccccc1 (stereo not drawn),-1%,2%[15.4 µM],-0.3,13%,-1.2,-2.1%,-0.2%
O=C(NNS(=O)(=O)c1ccc2ccccc2c1)c1cccnc1,2%,9%[15.4 µM],0.3,7%,5.1,0.1%,-2.2%
COc1cc(OC)cc(-c2c(-c3cccs3)c3cc(-c4cc(OC)c(OC)c(OC)c4)ccc3n2C)c1,/,3%,/,3%,-2.8,2.4%,3.9%
O=C(COC(=O)c1cccc(Cl)c1)NC1CCS(=O)(=O)C1 (stereo not drawn),/,18%,/,5%,-4.8,-0.4%,0.6%
CC1=C(C(N)=O)C(c2ccccc2F)NC(=O)N1 (stereo not drawn),0%,-45%[inhibitor],-2.0,19%,-2.5,0.0%,0.7%

# Next part:
SMILES,Sfp inh,gsp agonist,Menin-MLL FL inh,gsp antagonist,D2 ag,PINK1 modulator,ClpP mod
O=C(O)C1=C(C2CCCCC2)C(=O)c2ccccc21,/,16%,/,-20%,-1.3,-5.3%,-1.1%
C#CCOC(=O)c1csc2nnsc12,8%,7%,3.1,12%,-1.9,2.6%,2.1%
N#CCc1c[nH]c2ccc([N+](=O)[O-])cc12,/,2%,/,-3%,-1.4,-2.7%,/
Cc1cccc(C(C)C)c1NC(=O)COC(=O)CCC(=O)N(CC(C)C)c1c(N)n(CC(C)C)c(=O)[nH]c1=O,/,-10%,/,/,-2.1,0.2%,0.8%
CCc1cc2c(N[C@@H](C)C(=O)O)ncnc2s1,1%,-22%,6.7,2%,-5.6,-1.1%,-4.5%
CCOC(=O)CNC(=O)CSc1ccc(-c2nc3ccccc3[nH]2)cn1,13%,7%,-7.0,-7%,2.9,0.9%,/
CCCCOc1ccc2ccccc2c1C=O,-6%,-11%,0.4,?,-4.4,0.8%,-0.2%
CC(C)c1ccc(C(C)NC(=S)NC2CCCCC2)cc1 (stereo not drawn),17%,3%,0.0,-26%,-2.8,?,-0.2%
COc1cccc(CC(=O)Nc2ccccc2N2CCCC2)c1,11%,22%,/,-7%,-4.0,2.6%,-1.0%
N#C/C(=C\c1ccccc1[N+](=O)[O-])c1nc(C2CC2)cs1,-12%,-36%[inhibitor],9.9,-6%,1.1,6.9%,-13%

# Screens deposited in PubChem by National Center for Advancing Translational Sciences (NCATS).
